# Screening data from PubChem BioAssay.
# FEN1 inhibitor – human FEN1 inhibition; P39748; Recombinant FEN1 flap cleavage, fluorescence, 15 min; Potency, µM (top dose mostly 114 µM), for the others: top-dose activity change, negative = inhibition, hits mostly inhibitors; 390,000 compounds, 0.35% hits; AID 588795; further: nearly all actives have a fitted effect of over 65% in size
#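 Recombinant FEN1 (10 nM) was preincubated with pin-transferred compounds for 15 min at room temperature, then flap DNA substrate (50 nM final) was added. Plates were read at 0 and 15 min, and normalized concentration–response data were fitted to a four-parameter Hill equation.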
# GCN5L2 inh – inhibitors of human GCN5L2 histone acetyltransferase | Q92830 | GCN5L2 HAT assay, ThioGlo1 CoA-SH fluorescence | Potency, µM (top dose mostly 58.9 µM), for inactives: at the highest dose activity change, negative = inhibition, actives largely listed as inhibitors | 390,000 compounds, 0.21% hits
# Target sequence (Q92830 whole entry, looked up): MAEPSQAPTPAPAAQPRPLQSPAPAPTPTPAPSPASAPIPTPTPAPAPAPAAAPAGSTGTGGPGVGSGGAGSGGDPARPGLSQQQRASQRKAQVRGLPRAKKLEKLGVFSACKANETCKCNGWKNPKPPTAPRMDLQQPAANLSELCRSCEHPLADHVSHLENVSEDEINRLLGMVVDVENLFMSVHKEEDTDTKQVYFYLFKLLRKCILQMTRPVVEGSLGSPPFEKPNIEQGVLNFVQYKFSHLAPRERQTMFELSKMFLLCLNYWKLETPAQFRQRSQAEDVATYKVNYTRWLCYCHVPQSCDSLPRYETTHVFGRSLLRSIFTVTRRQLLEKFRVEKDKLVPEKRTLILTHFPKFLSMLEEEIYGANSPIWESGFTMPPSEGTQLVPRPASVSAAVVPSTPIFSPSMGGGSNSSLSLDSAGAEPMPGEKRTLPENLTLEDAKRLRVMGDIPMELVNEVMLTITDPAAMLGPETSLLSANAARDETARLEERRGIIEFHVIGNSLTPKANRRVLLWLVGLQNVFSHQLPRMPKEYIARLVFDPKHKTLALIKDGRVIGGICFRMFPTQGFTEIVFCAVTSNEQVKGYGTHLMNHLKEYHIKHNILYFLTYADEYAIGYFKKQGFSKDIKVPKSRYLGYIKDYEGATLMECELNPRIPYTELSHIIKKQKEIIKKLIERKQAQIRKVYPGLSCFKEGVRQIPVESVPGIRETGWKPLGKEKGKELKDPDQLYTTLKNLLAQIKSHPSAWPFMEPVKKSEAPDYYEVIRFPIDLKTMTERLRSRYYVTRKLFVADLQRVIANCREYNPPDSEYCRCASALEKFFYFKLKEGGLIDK
#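 Preincubate 20nM GCN5L2 with compound 15 min, RT → add 50uM ThioGlo1 + 75uM H3(1-25) + 70uM acetyl-CoA → read fluorescence 0 and 20 min. Primary qHTS; fluorescent artifacts likely.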
# Starred values were filed as active, the others as inactive; u = inconclusive; x = not tested or not shown; & = joins results of further samples; [ ] = another dose, or the depositor's remark. The call rests on the fitted dose curve; in most records, active means well fitted curve in the direction sought with a large enough effect; inconclusive means small, poorly fitted or top-dose-only effect, or another doubt; inactive means no such curve, though single readings can be large; an effect the other way counts as inactive or inconclusive. On the % scale 0 is the no-effect control and ±100 the full control effect; potency means the concentration at half of the fitted maximal effect. Not all compounds are listed, and most or all hits are left out here.
SMILES,FEN1 inhibitor,GCN5L2 inh
CC(=O)c1ccc(OCCn2cnc3ccccc32)cc1,-5%,2%
CC1CCN(S(=O)(=O)c2cn(CC(=O)N3CCN(c4cccc(C(F)(F)F)c4)CC3)cn2)CC1,-21%,-24%
Cc1ccc(NS(=O)(=O)c2cc(C(=O)NCc3ccncc3)ccc2C)cc1,6%,3%
Cc1cc(C)nc(SCC(=O)Oc2ccc3oc(=O)cc(C)c3c2)n1,0%,-13%
c1ccc2c(c1)nc(NCc1ccc3c(c1)OCO3)n2CCN1CCOCC1,-3%,-1%
COc1cccc(OC)c1C(=O)N1CCN(c2c(Cc3ccccc3)c(C)nc3ncnn23)CC1,-4%,-5%
O=C(CCc1ccccc1)Nc1nnc(-c2ccccn2)o1,0%,-6%
COc1ccc(Nc2nc3c(C)cccc3cc2C#N)c(OC)c1,-8%,-3%
C=C(C)C(=O)Nc1cccnc1Oc1ccc(F)cc1F,-2%,-2%
O=[N+]([O-])c1cc(/C=N/O)ccc1Oc1ccccc1Cl,12%,-9%
CCS(=O)(=O)Nc1cccc(-c2cn3c(n2)SCC3)c1,16%,-4%
COc1ccccc1C(=O)Nc1ccc2c(c1)CN(C(=O)CSC)CC2,-6%,-9%
CC(C)(C)c1ccc(-c2cc(N)n[nH]2)cc1,1%,-13%
CNC(=O)c1ccsc1NC(=O)C1CCN(S(=O)(=O)c2ccc(Cl)s2)CC1,-23%,-8%
FC(F)(F)c1nnc(Nc2ccc(Cl)cc2)s1,-8%,-12%
Cc1ccc(-n2cc[nH]c2=S)c(C)c1,8%,-8%
Cc1[nH]n(-c2ccccc2)c(=O)c1C=Nc1ccc(S(=O)(=O)N(C)C)cc1,5%,-2%
O=C(CCc1ccccc1)Nc1ncc2c(n1)CCCC2=O,7%,2%
Clc1ccc(-n2c(SCc3nc4ccccc4[nH]3)nnc2-c2ccncc2)cc1,5%,-14%
O=C(c1ccncc1)N1CCC2(CC1)CCN(c1ccncc1)CC2,x,3%
Cn1nnnc1SCC(=O)Nc1ccc(S(=O)(=O)N2CCOCC2)cc1,-5%,-6%
CCOC(=O)c1c(-c2ccccc2)oc2ccc(OCC(=O)NNC(=O)CCC(=O)O)cc12,15%,6%
Cc1ccc(-c2nnc(N3CCOCC3)c3ccccc23)cc1S(=O)(=O)NCc1cccnc1,-6%,-12%
CCC(C)(C)NC(=O)CCn1c(-c2ccccc2)cc(C(C)=O)c1C,-11%,-6%
CCCCOc1cccc(OCCCC)c1C(=O)Nc1cc(C)on1,-6%,-7%
C=CCn1c(COc2ccc(F)cc2)nnc1SCC(=O)N1CC(=O)Nc2ccccc21,6%,-6%
C=CCc1cc(C)ccc1OCCn1ccnc1,2%,-11%
Cc1nn(Cc2ccccc2)c(C)c1NS(=O)(=O)c1ccccc1,-2%,-13%
O=C(CN1C(=O)C2C3C=CC(C4CC34)C2C1=O)NCc1ccco1 (stereo not drawn),-1%,-3%
O=C(CN1C(=O)NC2(CCCCC2)C1=O)N1CCN(S(=O)(=O)/C=C/c2ccccc2)CC1,-7%,-8%
C=CCN(CC=C)C(=O)Cn1cnc([N+](=O)[O-])n1,4%,28%
Cc1c(NC(=O)c2ccc3c(c2)OCO3)cccc1-c1nc2ccccc2o1,0%,0%
CCC(OCC(O)CN1CCCCC1)c1ccccc1 (stereo not drawn),13%,-7%
O=C(NCCc1cccs1)C1CC(c2ccc([N+](=O)[O-])cc2)=NO1 (stereo not drawn),-3%,-6%
O=C(NCc1ccco1)c1ccc(COCC(F)(F)C(F)F)cc1,-4%,-3%
Cc1cccc(NC(=O)CC23CC4CC(C2)CC(n2nnc(C)n2)(C4)C3)c1,-7%,-5%
COc1cc2c(C(=O)N3CCN(c4cccc(Cl)c4)CC3)cn(C)c(=O)c2cc1OC,-3%&-2%,-4%&1%
COc1ccccc1N=Nc1[nH]c2ccc(C)cc2c1O,3%,0%
CCOC(=O)N1CCC(=NNC(N)=O)CC1,14%,-3%
CCCS/C(N)=N/N=C/c1cc(C)ccc1O,0%,-3%
Cc1ccc(NC(=O)c2ccco2)cc1NC(=O)CSc1nnc(-c2cccs2)n1C,-4%,-5%
C=CCOc1ccc(-c2n[nH]c(=S)o2)cc1,3%,-24%
CC1SCC(NC(=O)c2ccc(Cl)cc2)CS1 (stereo not drawn),1%,-13%
Cn1cc(S(=O)(=O)NC2CCCCCC2)c(=O)n(C)c1=O,-3%,-6%
O=C(CCNC(=O)Cn1ccc2ccccc2c1=O)NCc1ccc(F)cc1Cl,20%,4%
Cc1c(NC(=O)CSc2nncn2-c2ccccc2)c(=O)n(-c2ccccc2)n1C,-4%,-3%
Nc1nonc1-n1nnc(C(=O)N/N=C/c2ccc(O)cc2)c1COc1ccc(F)cc1,0%,-7%
OC1CCCN(Cc2ccc3ccc4cccc5ccc2c3c45)C1 (stereo not drawn),56µM*,-4%
Cc1cccc(/C(N)=N/OC(=O)COc2ccc(Cl)c(C)c2)c1,-7%,-6%
Cc1cc(NC(=O)CCC(=O)N(CC(=O)NC2CCCC2)Cc2cccs2)no1,3%,0%
Cc1nc(NC(=S)NC(=O)c2ccccc2)sc1C,17%,-5%
COc1ccc(N(CC(=O)N2CCCCC2)S(=O)(=O)c2ccccc2)c(OC)c1,-5%,3%
Cc1cc(C)c2nc(N3CCC(C(=O)NCc4ccccn4)CC3)sc2c1,-13%,-3%
Cc1cccc(NC(=O)COc2cccc3c2CCN(C)C3=O)c1C,0%,-3%
N#CCCn1c(=O)c(CCc2ccccc2)nc2cnc(Oc3ccccc3)nc21,x,-2%
COC(=O)C1=C(C)N(C)C(=O)NC1c1cc(Cl)cc(Cl)c1OC (stereo not drawn),-8%,-10%
CCc1cccc(NC(=O)NC(=O)Cn2nnc(C(=O)OC)c2C(=O)OC)c1,0%,0%
C/C(CC(=O)Nc1cccc(C(F)(F)F)c1)=N\NC(=O)c1cnccn1,-15%,-4%
Cc1ccc(C(C#N)c2ccc(Cl)nn2)cc1 (stereo not drawn),2%,-7%
CN(C)C1=NC[C@H](Cc2ccccc2)N1CCCCc1ccccc1,-9%,-2%

# (list continues)
SMILES,FEN1 inhibitor,GCN5L2 inh
O=C1CCC(C(=O)Nc2cccc(C(F)(F)F)c2)N1 (stereo not drawn),9%,1%
CC(C)(C)n1nc2c(c1NC(=O)c1ccccc1)CS(=O)(=O)C2,2%,-5%
Cc1cccc(OCCCC(=O)NC(C)c2ccccc2)c1 (stereo not drawn),4%,-8%
Cc1ccc(S(=O)(=O)CCC(=O)OCC(=O)NCc2ccccc2)cc1,-4%,-3%
COc1ccc(C)cc1NC(=O)CNc1ccc(C(C)=O)cc1,-9%,0%
CCOC(=O)/C(C#N)=C1/SC(C)C(=O)N1c1ccc(Br)cc1 (stereo not drawn),-1%,-20%
CCOC(=O)c1sc(NC(=O)CN2CCCC2)c(C(=O)OCC)c1C,3%,x
CC1CCCN(CCOc2cccc(Oc3ccccc3)c2)C1 (stereo not drawn),12%,-3%
O=C(NCc1ccc(F)cc1Cl)C1CC(=O)N(C2CCCCCCC2)C1 (stereo not drawn),24%,-3%
COc1ccc(C(NC(=O)/C=C/c2ccco2)c2ccc(OC)cc2)cc1,5%,24%
Cc1ccc(NC(=O)COc2cccc(-n3cnnn3)c2)cc1[N+](=O)[O-],8%,0%
O=C(c1ccc(Cn2cc(Br)cn2)o1)n1cccn1,14%,-1%
COc1cc2c(cc1OC)CN(C(=O)CNS(=O)(=O)c1ccc(C)c(C)c1)CC2,2%,-3%
CCSc1nnc(Cn2c(=O)sc3ccccc32)n1C,22%,2%
CN(CC(=O)Nc1ccc(Cl)c(Cl)c1)C(=O)CC1OC(=O)c2ccccc21 (stereo not drawn),-18%,-15%
O=[N+]([O-])c1ccc(S(=O)(=O)N2CCN=C2SCc2cccnc2)cc1,3%,-2%
O=c1c(Cc2ccc(F)cc2)c(O)ccn1CC1CCCO1 (stereo not drawn),20%,-8%
O=C(CSc1nnc(CNC(=O)c2ccc(F)cc2)o1)NCc1ccccc1Cl,1%,-2%
O=C(Nc1ccc(O)c2c(=O)cc(-c3cccc(Cl)c3)oc12)c1ccc(F)cc1,-5%,8%
O=C(NC(=S)NCCC1=CCCCC1)c1cncc(Br)c1,-18%,-2%
CC(=O)N1CCN(C(=O)CCc2nc3ccccc3c(=O)[nH]2)CC1,-4%,1%
Cc1c(C)n2c(SCC(=O)N3CCOCC3)nnc2[nH]c1=O,15%,-7%
O=C(CCCN1C(=O)/C(=C/c2ccccc2Cl)SC1=S)NNC(=O)c1ccc(Cl)cc1,7%,-8%
CC(=O)Oc1ccc2c(=O)c(-c3nc4ccccc4s3)coc2c1,-18%,4%
O=C(/C=C(/c1ccc(Cl)cc1)n1cncn1)c1ccccc1,1%,-9%
CN(CC(=O)Nc1cccc(F)c1)C(=O)c1cc2c(s1)CCCCC2,7%,-7%
CCCC(=O)C1=C(O)C(C(=O)OC)C(C)(C)CC1=NCc1ccccc1 (stereo not drawn),18%,-1%
O=C(Nc1ccccc1C(=O)Nc1ccccn1)c1cccc([N+](=O)[O-])c1,-8%,2%
Cc1cc2oc(=O)cc(CN3CCCCC3C)c2cc1C(C)C (stereo not drawn),-5%,-3%
O=S(=O)(/C=C/c1ccccc1)NCCc1ccccn1,-10%,-1%
CCOC(=O)c1ccc2c(c1)nc(SCC(=O)c1ccco1)n2CC,-14%,-1%
CC(C)C(NS(=O)(=O)c1ccc2c(c1)OCCCO2)C(=O)O (stereo not drawn),6%,2%
CC(C)n1c(O)c(N=NC(=O)CNC(=O)Cc2ccc(Cl)cc2)c2ccccc21,-15%,-11%
COc1ccc2[nH]cc(C(=O)CN3CCN(C4CCCCC4)CC3)c2c1,-1%,3%
CCCN1C2CCCC1CC(NC(=O)c1cccc(Cl)c1)C2 (stereo not drawn),-3%,-10%
O=C(CSc1nnc(Cc2ccccc2)n1Cc1ccccc1)NCc1ccco1,1%,0%
NS(=O)(=O)c1ccc(CCNCc2ccccc2OCc2ccc(F)cc2)cc1,-3%,u
COC(=O)Cc1ccc(NC(=S)NCc2ccccc2Cl)cc1,9%,-4%
CCC(C)NC(=O)CSc1nc2ccccc2c(=O)n1CCCN1CCCCC1 (stereo not drawn),-11%,u
S=c1nc(-c2ccccc2)n(CCCn2ccnc2)c2c1CCCC2,3%,-11%
CCC12CN3CC(CC)(CN(C1)C3c1c(O)ccc3ccccc13)C2=O (stereo not drawn),-11%,-8%
CCc1nc(Nc2ccc(F)cc2)c2oc3ccccc3c2n1,8%,2%
CC(CNS(=O)(=O)c1ccc(Cl)cc1)n1cncn1 (stereo not drawn),14%,0%
Cc1ccnc(NS(=O)(=O)c2ccc(NC(=O)CSc3nc(-c4ccccc4)cc(=O)[nH]3)cc2)n1,15%,-1%
CCN(CC)S(=O)(=O)c1ccc(NC(=S)Nc2ccccc2)cc1,18%,-16%
CCc1ccc(N(C(=O)CNC(=O)c2cccs2)C(C(=O)NC(C)(C)C)c2cc(OC)c(OC)c(OC)c2)cc1 (stereo not drawn),7%,u
COc1cc(F)ccc1S(=O)(=O)n1c(C)nc2ccccc21,-8%,-1%
O=C(c1ccc(S(=O)(=O)NCc2ccco2)cc1)N1CCN(Cc2ccccc2F)CC1,4%,-2%
O=C1Nc2ccc(S(=O)(=O)N3CCOCC3)c3cccc1c23,3%,x
COc1ccc(-n2c(N)c(C(=O)Nc3c(C)n(C)n(-c4ccccc4)c3=O)c3nc4ccccc4nc32)cc1,-17%,-5%
COc1ccc(NC(=O)COC(=O)/C=C/C(=O)OCC(=O)Nc2ccc(OC)c(Cl)c2)cc1Cl,-8%,-4%
CCCCC(=O)Nc1ccc(C(=O)N2CCC(C(=O)OCC)CC2)cc1,-10%,-6%[0.501 µM]
COCCn1c(COc2ccc(OC)cc2)nc2ccccc21,-11%,-3%

# Single values from the list:
# O=C1Nc2ccc(S(=O)(=O)N3CCOCC3)c3cccc1c23 @ FEN1 inhibitor: 3%
# CCc1ccc(N(C(=O)CNC(=O)c2cccs2)C(C(=O)NC(C)(C)C)c2cc(OC)c(OC)c(OC)c2)cc1 (stereo not drawn) @ FEN1 inhibitor: 7%

# Structures from the list above that contain an aryl thioether with sulfur outside any ring:
SMILES,FEN1 inhibitor,GCN5L2 inh
Cc1cc(C)nc(SCC(=O)Oc2ccc3oc(=O)cc(C)c3c2)n1,0%,-13%
Clc1ccc(-n2c(SCc3nc4ccccc4[nH]3)nnc2-c2ccncc2)cc1,5%,-14%
Cn1nnnc1SCC(=O)Nc1ccc(S(=O)(=O)N2CCOCC2)cc1,-5%,-6%
C=CCn1c(COc2ccc(F)cc2)nnc1SCC(=O)N1CC(=O)Nc2ccccc21,6%,-6%
Cc1ccc(NC(=O)c2ccco2)cc1NC(=O)CSc1nnc(-c2cccs2)n1C,-4%,-5%
Cc1c(NC(=O)CSc2nncn2-c2ccccc2)c(=O)n(-c2ccccc2)n1C,-4%,-3%
CCSc1nnc(Cn2c(=O)sc3ccccc32)n1C,22%,2%
O=C(CSc1nnc(CNC(=O)c2ccc(F)cc2)o1)NCc1ccccc1Cl,1%,-2%
Cc1c(C)n2c(SCC(=O)N3CCOCC3)nnc2[nH]c1=O,15%,-7%
CCOC(=O)c1ccc2c(c1)nc(SCC(=O)c1ccco1)n2CC,-14%,-1%
O=C(CSc1nnc(Cc2ccccc2)n1Cc1ccccc1)NCc1ccco1,1%,0%
CCC(C)NC(=O)CSc1nc2ccccc2c(=O)n1CCCN1CCCCC1 (stereo not drawn),-11%,u
Cc1ccnc(NS(=O)(=O)c2ccc(NC(=O)CSc3nc(-c4ccccc4)cc(=O)[nH]3)cc2)n1,15%,-1%
